# Lassa entry inh: inhibitors of Lassa virus binding or cell entry; Lassa virus pseudotype entry inhibition, cell reporter; control for the full effect not named in the record; Potency, µM (doses to about 37.9 µM), inactives show at the top dose activity change, negative = inhibition, usual class: inhibitors; 1.2% of 300,000 active; AID 540256; active means well fitted inhibition curve with a large enough effect; inconclusive means small, poorly fitted or top-dose-only effect, or effect the other way; inactive means flat fitted curve, though single readings scatter; tested in HEK293 cells; also: % is scaled to controls: 0 for no effect and ±100 for the full control effect; nearly all actives have a fitted effect of over 50% in size; luciferase read-out
# NS1 inh: blocks influenza NS1 protein function. S. cerevisiae slowed by influenza A NS1, growth recovery by OD600. Potency, µM (titrated, usually from 46.1 µM), for inactives: top-dose activity, positive = more growth. 0.4% of 270,000 active. AID 2326; active means well fitted rising curve with a large enough effect; inconclusive means small, poorly fitted or top-dose-only effect; inactive means no such curve, though single readings can be large or run the other way; also: nearly all actives have a fitted effect of over 50% in size
#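 Compounds were scored for reversing the slow growth caused by influenza A NS1 in S. cerevisiae, measured by optical density at 600 nm. Assay medium contained 2% galactose at pH 6.0; NS1-free yeast of the same strain were the positive control.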
# MARV entry inh: blocks Marburg virus binding to or entry into cells. Marburg virus pseudotyped entry inhibition, cell reporter; control for the full effect not named in the record; about a third of the inactives were read at about 46 µM. Potency, µM (series often up to 37.8 µM), for inactives: at the top dose activity change, negative = inhibition, most hits filed as inhibitors. 1.8% of 300,000 active. AID 540276; active = well fitted inhibition curve with a large enough effect; inconclusive = small, poorly fitted or top-dose-only effect, or effect the other way; inactive = flat fitted curve, though single readings scatter; tested in HEK293 cells; about a fifth of its hits are not listed in these tables; also: % is scaled to controls: 0 for no effect and ±100 for the full control effect; luciferase read-out
# Cruzain Triton: cruzain (T. cruzi) inhibition with detergent | AID 1478 | P25779 | 0.43% of 200,000 active | Potency, µM, for inactives: max response, negative = inhibition, hits mostly inhibitors | purified cruzain, Z-FR-AMC fluorescence, 0.01% Triton;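 also: plate controls were neutral wells for no effect and buffer without enzyme for full effect; nearly all actives have a fitted effect of over 40% in size; top concentration of the series not given in the record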
# Target sequence (P25779 123-467 limits assumed): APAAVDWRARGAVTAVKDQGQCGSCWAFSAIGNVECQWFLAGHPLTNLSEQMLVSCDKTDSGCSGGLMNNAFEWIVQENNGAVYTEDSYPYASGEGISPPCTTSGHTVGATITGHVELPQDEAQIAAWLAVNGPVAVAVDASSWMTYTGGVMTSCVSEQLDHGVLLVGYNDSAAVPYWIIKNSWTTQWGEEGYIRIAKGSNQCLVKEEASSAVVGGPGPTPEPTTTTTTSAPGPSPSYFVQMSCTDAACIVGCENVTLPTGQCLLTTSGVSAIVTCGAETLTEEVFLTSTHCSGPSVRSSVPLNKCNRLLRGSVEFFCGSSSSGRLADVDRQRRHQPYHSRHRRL
#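 In this qHTS format, compounds are incubated with 1.5 nM cruzain for 15 min at room temperature before 2 uM Z-FR-AMC is added. Release of AMC is followed at 360/450 nm, and progress is taken as the 60 s fluorescence difference.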
# RE007 growth inh: less growth of the S. pombe RE007 Vpr strain. S. pombe RE007 Vpr strain, BacTiter-Glo ATP luminescence, 24 h; control for the full effect not named in the record. Potency, µM (top dose mostly 92.2 µM), inactives show top-dose activity change, negative = less growth. 0.21% of 360,000 active. AID 651644; active = well fitted falling curve with a large enough effect; inconclusive = small, poorly fitted or top-dose-only effect; inactive = no such curve, though single readings can be large or run the other way;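 also: % is scaled to controls: 0 for no effect and ±100 for the full control effect; nearly all actives have a fitted effect of over 50% in size; the assay follows cell death caused by Vpr and the record does not say whether a fall means rescue or toxicity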
#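 Fission yeast RE007 carrying one integrated HIV-1 vpr copy, seeded at OD 0.01 in PMG+AL medium with 23 nL pinned compound. Grown 24 h at 30 degrees; viability read by BacTiter-Glo luminescence after 5 min.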
# SARS PLP yeast: SARS-CoV PLP inhibition in yeast; AID 485353; 0.19% of 330,000 active; S. cerevisiae expressing SARS-CoV PLpro, growth rescue; control for the full effect not named in the record; Potency, µM (series often up to 32.9 µM), for the others: top-dose activity, positive = growth rescue; active means well fitted rising curve with a large enough effect; inconclusive means small, poorly fitted or top-dose-only effect; inactive means no such curve, though single readings can be large or run the other way; also: 0% is about no effect; nearly all actives have a fitted effect of over 55% in size; growth read by luminescence after 48 h
# 2A StopGo: lowers the luciferase signal of an FMDV 2A StopGo reporter; human cells with a luciferase reporter of 2A StopGo recoding; control for the full effect not named in the record; Potency, µM (highest dose often 57.9 µM), for inactives: top-dose signal change, negative = less light; 1.2% of 410,000 active; AID 1159524; active = well fitted falling curve with a large enough effect; inconclusive = small, poorly fitted or top-dose-only effect; inactive = no such curve, though single readings can be large or run the other way; tested in HEK293T cells; also: % is scaled to controls: 0 for no effect and ±100 for the full control effect; nearly all actives have a fitted effect of over 45% in size; luciferase light after 4 h
# Cruzain inh noDet: inhibitors of Trypanosoma cruzi cruzain without detergent; P25779; purified cruzain, Z-FR-AMC fluorescence, no detergent; Potency, µM, for inactives: max response, negative = inhibition, usual class: inhibitors; 2.3% of 200,000 active;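 also: plate controls were enzyme without inhibitor for no effect and buffer without enzyme for full effect; nearly all actives have a fitted effect of over 40% in size; top concentration of the series not given in the record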
#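 Purified cruzain at 1.5 nM, pre-incubated 15 min with compound at room temperature in 100 mM sodium acetate pH 5.5, 5 mM DTT, 0.00005% Triton X-100. Reaction started with 2 uM Z-FR-AMC; AMC fluorescence increase over 60 s gives rate.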
# * hit, by the source's call; ? = inconclusive; nt = not tested or not shown; & = joins results of further samples; [ ] = remark or other dose. Unless noted, calls follow the shape of the dose curve; as a rule, active = well fitted curve in the direction sought with a large enough effect; inconclusive = small, poorly fitted or top-dose-only effect, or another doubt; inactive = no such curve, though single readings can be large; an effect the other way counts as inactive or inconclusive. Potency is read from the fitted curve at half-maximal effect.
SMILES,Lassa entry inh,NS1 inh,MARV entry inh,Cruzain Triton,RE007 growth inh,SARS PLP yeast,2A StopGo,Cruzain inh noDet
Cn1cc(CC(=O)N2CCN(c3ccccc3F)CC2)c2ccccc21,nt,-46%,nt,-0.8%,8%,10%,-2%,-6%
CCc1ccc(OCCCCN(C)Cc2ccccc2)cc1,nt,-13%,nt,nt,-4%,-2%,-16%,nt
CN(C)c1ccc(C2CC(=O)OC3=C2C(=O)CC(C)(C)C3)cc1 (stereo not given),-15%,nt,-12%[46.1 µM],nt,5%,2%,-18%,nt
CCOC(=O)c1cc(NC(=O)c2cccnc2)cc(C(=O)OCC)c1,2%,-6%,?,-12%,9%,-1%,-3%,-17%
CSc1nc2ccccc2s1,-1%,-7%,-16%,-2.1%,3%,-2%,-4%,-4%
O=S(=O)(c1cccc(S(=O)(=O)N2CCOCC2)c1)N1CCCCCC1,nt,28%,nt,nt,-9%,-2%,5%,nt
CN(C(=O)c1cc(-c2ccccc2)on1)C1CCCCC1,?,-2%,?,nt,-7%,-1%,23%,nt
O=C(NCCc1ccccc1)c1cccc(S(=O)(=O)NCc2ccccc2)c1,nt,nt,1%,nt,13%,1%,32%[activator],nt
CCOC(=O)C(=CNc1cc(C)ccc1C)C(=O)OCC,-11%,-3%,4%,0.0%,-2%,-1%,-24%,16%
O=C(CN(c1ccccc1F)S(=O)(=O)c1ccccc1)N1CCCCCC1,-15%,9%,-2%,0.2%,-3%,2%,46%[activator],1%
COc1ccc(C(=O)NCC(C)CN(C)C)cc1 (stereo not given),-1%,5%,2%[46.1 µM],8.7%,2%,7%,1%,-6%
CCn1c(C)nc2cc(S(=O)(=O)N3CCCC3)ccc21,2%,0%,11%,5.9%,7%,7%,-25%,-3%
COc1ccc(-n2nc(C(=O)N3CCCCC3)c3c4ccccc4n(C)c3c2=O)cc1Cl,4%[46.1 µM],nt,-2%[46.1 µM],-0.2%,nt,nt,?,2%
CC(=O)c1cccc(NC(=O)CN2C=NS(=O)(=O)c3ccc(C)cc32)c1,?,-2%,1%&1%[46.1 µM],-0.3%,9%,-1%,-5%&-7%,19%
Cc1c(NC(=S)NC(NC(=O)C(C)C)C(Cl)(Cl)Cl)c(=O)n(-c2ccccc2)n1C (stereo not given),2%,-3%,?,2.4%,-7%,?,-5%,4%
CCN(C(=O)COC(=O)c1c(C)c(-c2ccccc2)nc2ccccc12)C1CCS(=O)(=O)C1 (stereo not given),nt,-12%,nt,nt,-8%,-1%,-25%,nt
CCc1ccc2nc(/N=C(\N)NC(=O)c3ccccc3)nc(C)c2c1,-5%,0%,-36%,nt,-9%,-1%,-5%,nt
COc1cccc(-n2c(O)c(C=NCc3ccccn3)c3ccccc3c2=O)c1,-13%,-3%,-16%,nt,4%,-2%,-5%,nt
Oc1ccc(N=Nc2ccc3c(c2)OCCO3)c2cccnc12,?,nt,?,nt,?,-7%,?,nt
COc1ccc(Cl)cc1-c1nc(SCC(=O)N(C)C)n[nH]1,-1%,nt,12%[46.1 µM],nt,-25%,-2%,3%,nt
O=C1c2cccc3cccc(c23)C(=O)N1CC1CCN(CC(O)COc2ccc3ccccc3c2)CC1 (stereo not given),nt,-144%,-1%,-16%,9%,-30%,?,-19%
O=C(NCc1ccc(Cl)s1)C1CCC(=O)N(CCc2cccc(F)c2)C1 (stereo not given),nt,3%,nt,nt,-3%,3%,-5%,nt
CN(C)CCCn1c2c(c(SCC(=O)Nc3ccc4c(c3)OCO4)nc1=O)CCCC2,-10%,nt,-21%,nt,2%,-8%,2%,nt
NC(=O)c1ccsc1NC(=O)CSc1nnc(NC2CC2)s1,5%,nt,?,nt,7%,0%,-1%,nt
Cc1ccc(OCC(=O)OCc2cc(=O)n3nc(C4CC4)sc3n2)cc1C,3%[46.1 µM],nt,nt,-3.9%,nt,nt,5%,-8%
Cc1ccc(-c2nc(-c3cccnc3)no2)cc1,?,-49%,-9%[46.1 µM],-0.4%,-26%,nt,13%,1%
Cc1cc2c(c(N3CCOCC3)n1)C(=O)OC2,3%,-6%,-1%,2.5%,-12%,8%,-1%,-1%
O=C(NC(=O)N1CCCC1)c1csnn1,-5%,6%,12%[46.1 µM],nt,22%,-2%,-5%,nt
COCC(=O)N1c2nc(C(C)C)nn2C2(CCCCC2)[C@@H]2CCCC[C@@H]21,5%[46.1 µM],nt,?,-0.1%,nt,nt,-12%,-1%
O=C1c2ccccc2COc2ccc(O)cc21,23%,-82%,19%,1.9%,-22%,-16%,36%[activator],-7%
CCCCCCOc1ccc(/C=C/C(=O)N2CCOCC2)cc1OC,nt,5%,nt,nt,0%,4%,3%,nt
CCc1nccn1S(=O)(=O)c1cc(OC)ccc1OC,nt,8%,nt,nt,23%,0%,-1%,nt
COc1ccc(CN(C)CC(=O)Nc2ccccc2C(=O)NC2CC2)cc1F,12%,nt,?,nt,-9%,2%,-17%,nt
O=C(Nc1cc(Cl)cc(Cl)c1)c1cc(S(=O)(=O)NC2CCCC2)ccc1F,2%[46.1 µM],nt,nt,0.5%,nt,nt,-11%,1%
CCOCCc1nnc(NC(=O)Cc2c(F)cccc2Cl)s1,-25%[46.1 µM],0%,-23%[46.1 µM],nt,11%,0%,-17%,nt
Cc1ccc(OCC(=O)Nc2cccc3c2CCCC3)cc1C,-18%,nt,17%,nt,3%,nt,-8%,nt
O=C(c1cn(-c2ccccc2)nc1-c1cccs1)N1CCN(c2ccccn2)CC1,-1%,-52%,-10%&-10%,4.7%,-21%,-9%,-3%,7%
CCCNC(=O)COC(=O)c1ccccc1C(=O)c1ccc(Cl)c([N+](=O)[O-])c1,?,nt,3.2µM*,nt,11%,2%,11µM*,nt
Cc1ccc2c(CC(=O)N3CCN(c4ccccc4)CC3)coc2c1,-29%,nt,-12%[46.1 µM],nt,1%,0%,-8%,nt
CCOC(=O)C1=C(C)NC(=S)NC1/C=C/c1ccccc1 (stereo not given),-17%,6%,?,-9.2%,25%,29%,?,-4%
Cc1ccc(-c2csc(NC(=O)c3ccc(-c4ccccc4)cc3)n2)o1,nt,9%,nt,-7.3%,-4%,-29%,-22%,?
C/C(N)=C(/C#N)C(=O)COC(=O)c1cc2c(s1)CCCC2,12%[46.1 µM],-3%,21%[46.1 µM],nt,6%,-1%,36%[activator],nt
CC(C)N1C(=O)CCC1C(=O)NCc1ccccc1Cl (stereo not given),2%,0%,-2%,1.4%,23%,-9%,-7%,1%
COc1ccccc1-c1cnn2c(N3CCOCC3)cc(C)nc12,9%[46.1 µM],-5%,?,nt,-5%,1%,28%,nt
Cc1ccc(/C=N/NC(=O)c2ccco2)cc1,?,-6%,?,nt,-6%,-3%,-13%,nt
O=Cc1ccc2noc(-c3ccc(Cl)cc3)c2c1,-2%,-15%,?,2.4%,-30%,-3%,21%,-9%
COc1cccc(CNC(=O)CCNS(=O)(=O)c2ccc(C)cc2)c1,2%,nt,1%,nt,18%,0%,2%,nt
CCOc1cc(CNn2cnnc2)cc(Br)c1OCC(=O)NC(C)(C)C,nt,13%,nt,nt,23%,3%,-1%,nt
CCOC(=O)N1CCC(C(=O)Nc2ccc(OCC)cc2)CC1,-7%,-22%,14%,-0.3%,-4%,-8%,-23%,-3%
N#Cc1ccc(CN2CCN(C(=O)CN3C(=O)NC4(CCCC4)C3=O)CC2)cc1,-29%,nt,4%,nt,-5%,0%,?,nt
# Following part
SMILES,Lassa entry inh,NS1 inh,MARV entry inh,Cruzain Triton,RE007 growth inh,SARS PLP yeast,2A StopGo,Cruzain inh noDet
CCc1ccc(C(=O)CSc2ncn[nH]2)cc1,15%,-12%,0%,2.0%,-4%,-5%,36%[activator],-1%
O=C(Nc1cccc(NC(=O)N2CCN(c3ccccc3)CC2)c1)N1CCN(c2ccccc2)CC1,?,4%,?,-3.1%,13%,3%,25µM*,?
CCC1S/C(=N/N=C/c2ccco2)N(Cc2ccc(F)cc2)C1=O (stereo not given),nt,0%,nt,nt,-4%,-2%,-16%,nt
Cc1cc(/C=C(\C#N)C(=O)Nc2ccccc2)c(C)n1-c1ccc(C(=O)O)cc1,nt,-1%,nt,nt,10%,0%,-24%,nt
Cc1cc(C)c(S(=O)(=O)Nc2ccccc2C(=O)OCC(=O)NCc2ccccc2)c(C)c1,10µM*,nt,?,nt,-1%,1%,0%,nt
COc1ccc(NC(=O)c2ccccc2S(=O)c2ccccc2C#N)cc1 (stereo not given),-1%[46.1 µM],2%,6%[46.1 µM],nt,-3%,0%,-11%,nt
O=[N+]([O-])c1ccc(/C=C/C2=NN(c3ccccc3)C(c3ccco3)C2)cc1 (stereo not given),0%,10%,1%,-3.7%,-17%,-17%,-1%,-90%
CC1CCC(NC(=O)C2CCC(CNS(=O)(=O)c3cccc4cccnc34)CC2)CC1 (stereo not given),nt,10%,nt,nt,11%,19%,-5%,nt
CC1(c2nnc(-c3cccc(Cl)c3)o2)CC(c2ccc(OC(F)(F)F)cc2)=NO1 (stereo not given),nt,-18%,nt,nt,0%,-2%,-16%,nt
COC(=O)c1ccccc1NS(=O)(=O)c1ccc(F)cc1,16%,2%,1%,-2.1%,-9%,-8%,-16%,-19%
CCOc1ccc(-c2nonc2NC(=O)c2oc3ccc(CC)cc3c2C)cc1,?,nt,7%[46.1 µM],5.4%,nt,nt,0%,6%
COc1ccc(N2C(=O)CS(=O)C(c3ccccc3)C2=O)cc1 (stereo not given),10%[46.1 µM],10%,-10%[46.1 µM],nt,-7%,1%,37%[activator],nt
COc1ccc(-c2nnc3sc(-c4cccs4)nn23)cc1OC,0%,-7%,0%,-1.0%,-1%,0%,13%,-11%
Cc1cc(NC(=O)CCS(=O)(=O)c2ccc(F)cc2)no1,1%[46.1 µM],nt,-2%,nt,13%,-3%,11%,nt
O=C(NC1CCCCC1)C(c1ccc2ncccc2c1)N(Cc1ccc2c(c1)OCO2)C(=O)c1cccs1 (stereo not given),-13%,-16%,-27%,-3.3%,-8%,-1%,nt,-6%
S=C(NCc1cccnc1)Nc1ccc(Oc2ccc(Cl)cc2)cc1,-5%,-5%,?,nt,4%,0%,0%,nt
CN(C)CC/C=C1\c2ccccc2Sc2cc(F)c(Cl)cc21,?,nt,14µM*,nt,4%,nt,?,nt
O=C(CSc1ncc(-c2ccccc2)[nH]1)Nc1ccccc1F,-5%[46.1 µM],nt,-3%[46.1 µM],nt,-1%,-1%,27%,nt
Cc1ccccc1NC(=O)c1c(O)c2cccc3c2n(c1=O)CCC3,nt,10%,4%,2.3%,nt,-5%,nt,-6%

# High-throughput results deposited in PubChem BioAssay by National Center for Advancing Translational Sciences (NCATS).

# Random draw from the library; overall some 4.7% were active at least once.
